Source: PubChem BioAssay (Broad Institute)
Vaccinia inh: blocks a specific stage of Vaccinia orthopoxvirus infection, primary screen, cell-based, single point; Vaccinia-infected cells, mCherry/Venus stage reporter fluorescence; active compounds read low; some inactives read as strong as hits; activity change (mCherry), % (concentration not given with the values); hit rate 0.01% among 89,000; AID 1053133, 2014;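 active = mCherry past -33% and 40 or more points under the early reporter, replicates agreeing; inconclusive = past -33% without that gap or agreement; tested in A549 cells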;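 also: scaled between vehicle wells and reference inhibitor wells; 23 nL library stock went into each well; one replicate is shown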
Vaccinia inh Venus: further read-out of Vaccinia inh, marked with its call; activity change (Venus), %; measured here: Venus reporter, other viral stage;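 negative = less Venus signal; first of two replicates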
* hit, by the source's call; ? = inconclusive; / = not tested or not shown; & = joins results of further samples. The list is partial; rates above refer to the full screens.

SMILES | Vaccinia inh | Vaccinia inh Venus
Cc1noc(C)c1S(=O)(=O)Nc1ccc2c(c1)C(=O)N([C@H](C)CO)C[C@H](C)[C@@H](CN(C)C(=O)Nc1ccccc1)O2 | 21.7 | 11.9
CNC(=O)C[C@H]1CC[C@H]2[C@@H](COc3ccc(NC(=O)Nc4ccccc4)cc3C(=O)N2C)O1 | 0.5 | 7.1
C[C@@H]1CCCCO[C@H](CN(C)C(=O)Nc2ccc(F)cc2)[C@@H](C)CN([C@H](C)CO)C(=O)c2cc(NC(=O)Nc3ccc(F)cc3)ccc2O1 | -11.8 | -1.7
CC(C)NC(=O)N(C)C[C@H]1Oc2cc(Br)ccc2S(=O)(=O)N([C@H](C)CO)C[C@H]1C | 11.1&15.8 | 4.5&10.6
CNC[C@@H]1Oc2ccc(NC(=O)Cc3ccccc3)cc2CC(=O)N([C@H](C)CO)C[C@H]1C | 13.1 | 12.5
C[C@H]1CN([C@@H](C)CO)C(=O)c2cccc(NC(=O)c3cnccn3)c2O[C@H]1CN(C)S(=O)(=O)c1cccs1 | 10.0 | 2.1
O=C(NCc1ccccc1)[C@H]1[C@H](CO)[C@H]2Cn3c(cccc3=O)[C@@H]1N2 | 4.9 | 2.0
O=C1CN(Cc2ccccc2)C[C@@H]2[C@H](c3ccc(-c4ccccc4F)cc3)[C@@H](CO)N12 | 4.6 | 1.4
C[C@@H]1CN([C@H](C)CO)C(=O)c2cc(N(C)C)ccc2O[C@@H]1CN(C)S(=O)(=O)c1ccc(Cl)cc1 | 1.6 | -1.1
COc1ccc(S(=O)(=O)Nc2cccc3c2O[C@@H](CN(C)S(=O)(=O)c2cn(C)cn2)[C@@H](C)CN([C@@H](C)CO)C3=O)cc1 | 4.3 | 2.8

3 entries picked at random from those above, as already listed:
SMILES | Vaccinia inh | Vaccinia inh Venus
COc1ccc(S(=O)(=O)Nc2cccc3c2O[C@@H](CN(C)S(=O)(=O)c2cn(C)cn2)[C@@H](C)CN([C@@H](C)CO)C3=O)cc1 | 4.3 | 2.8
C[C@@H]1CCCCO[C@H](CN(C)C(=O)Nc2ccc(F)cc2)[C@@H](C)CN([C@H](C)CO)C(=O)c2cc(NC(=O)Nc3ccc(F)cc3)ccc2O1 | -11.8 | -1.7
O=C1CN(Cc2ccccc2)C[C@@H]2[C@H](c3ccc(-c4ccccc4F)cc3)[C@@H](CO)N12 | 4.6 | 1.4

Next results follow:
SMILES | Vaccinia inh | Vaccinia inh Venus
C[C@@H]1CN([C@H](C)CO)C(=O)Cc2cc(NS(=O)(=O)c3cn(C)cn3)ccc2O[C@H]1CN(C)Cc1ccc(C(=O)Nc2ccccc2N)cc1 | 28.6 | 10.4
CCC(=O)N[C@@H]1C[C@@H]2O[C@H](CO)CC[C@@H]2O[C@@H]1CCc1ccc(-c2cccc(OC)c2)cc1 | -27.1 | -20.3
CCC(=O)Nc1ccc2c(c1)OC[C@@H](C)N(C(=O)c1cnccn1)C[C@H](C)[C@H](OC)CN(C)C2=O | 8.7 | 3.0
C[C@@H]1CN([C@H](C)CO)C(=O)CCCn2nncc2CO[C@@H]1CN(C)C(=O)Cc1ccccc1 | 10.4&-0.3 | 10.6&-11.4
OC[C@@H]1[C@H](c2ccc(-c3cccnc3)cc2)[C@H]2CN(CC3CCOCC3)CCCCN12 | 6.1 | 4.5
C[C@@H]1CN([C@H](C)CO)C(=O)c2cc(NC(=O)Cn3cnnn3)ccc2O[C@@H]1CN(C)C(=O)Nc1ccc(C(F)(F)F)cc1 | 11.6 | 4.4
COc1ccc2c3c(n(C)c2c1)[C@H](CO)N(C(=O)Cc1ccccn1)CC31CN(CC2CCOCC2)C1 | 9.4 | -1.1
C[C@@H](NC(=O)C[C@@H]1C[C@@H]2c3cc(NC(=O)CN(C)C)ccc3O[C@@H]2[C@@H](CO)O1)c1ccccc1 | 5.9 | -3.6
C[C@@H]1CN([C@H](C)CO)C(=O)CCCn2nncc2CO[C@H]1CN(C)C(=O)Oc1ccccc1 | 5.5&12.8 | 5.6&13.3
CN(C)CC(=O)N1[C@@H]2c3ccc(-c4ccccc4)c(=O)n3C[C@@H]2[C@@H](CO)[C@@H]1C(=O)NC1CCC1 | 1.5 | 7.6
COC(=O)[C@@]1(Cc2ccccc2)N=C(c2ccc(OCCCO)cc2)O[C@H]1c1ccccc1CN=[N+]=[N-] | ? | /
O=C(C1CCOCC1)N1CC(=O)N2[C@H](C1)[C@H](c1ccc(Br)cc1)[C@@H]2CO | 7.4 | -1.0
Cc1ccc(S(=O)(=O)Nc2ccc3c(c2)CC(=O)N([C@@H](C)CO)C[C@@H](C)[C@@H](CN(C)C)O3)cc1 | -0.5 | -2.6
COc1ccc(C#Cc2ccc3c(c2)O[C@H](CN(C)C(=O)CN2CCOCC2)[C@H](C)CN([C@@H](C)CO)S3(=O)=O)cc1 | ? | /
COc1ccccc1S(=O)(=O)N[C@H]1CC[C@@H](CCNC(=O)C2CCCCC2)O[C@@H]1CO | 2.6 | -0.8
N#C[C@@H]1[C@@H](c2ccc(C#CC3CC3)cc2)[C@H](CO)N1C(=O)Cc1ccccn1 | 3.0 | 10.4
CO[C@H]1CN(C)C(=O)c2cc(NC(=O)Nc3cccc(F)c3)ccc2OC[C@@H](C)N(C)C[C@@H]1C | -16.1 | -2.1
O=C(C1CCCC1)N1[C@@H](CO)[C@@H]2c3ccccc3N(S(=O)(=O)c3ccc(F)cc3)C[C@@H]21 | -11.9 | -7.9
C[C@@H]1CN([C@@H](C)CO)C(=O)c2cc(NS(=O)(=O)c3cn(C)cn3)ccc2O[C@@H](C)CCCCO[C@H]1CN(C)C(=O)CCCN(C)C | 24.9 | 18.1
C[C@H]1CN([C@@H](C)CO)C(=O)c2cc(NC(=O)NC3CCCCC3)ccc2O[C@H]1CN(C)S(=O)(=O)c1cn(C)cn1 | 9.4 | 4.8

One compound at a time, from the list above. Order of values: Vaccinia inh | Vaccinia inh Venus
O=C(C1CCCC1)N1[C@@H](CO)[C@@H]2c3ccccc3N(S(=O)(=O)c3ccc(F)cc3)C[C@@H]21 in the list: -11.9 | -7.9
Cc1ccc(S(=O)(=O)Nc2ccc3c(c2)CC(=O)N([C@@H](C)CO)C[C@@H](C)[C@@H](CN(C)C)O3)cc1 in the list: -0.5 | -2.6

Remaining list, next part:
SMILES | Vaccinia inh | Vaccinia inh Venus
CCCNC(=O)N1CC2(CN(CC3CCCC3)C2)c2c(n(C)c3cc(OC)ccc23)[C@H]1CO | ? | /
O=C(C[C@@H]1C=C[C@@H](NS(=O)(=O)c2cccc(F)c2)[C@@H](CO)O1)NCc1ccc2c(c1)OCO2 | -0.9 | 0.3
COc1ccccc1NC(=O)N(C)C[C@@H]1Oc2ncc(C#CCN(C)C)cc2C(=O)N([C@@H](C)CO)C[C@H]1C | -27.8 | -26.2
C[C@@H]1CN([C@@H](C)CO)C(=O)c2cccc(NC(=O)c3ccc(-c4nccs4)cc3)c2O[C@@H]1CN(C)S(=O)(=O)c1cccs1 | 10.7 | 11.9
O=C(Cc1ccccn1)NCC[C@@H]1CC[C@H](NS(=O)(=O)c2ccc(Cl)cc2)[C@H](CO)O1 | -1.0 | 4.8
CCCC#Cc1ccc([C@@H]2[C@H](CO)N3CCCCN(CC4CCOCC4)C[C@@H]23)cc1 | -0.6 | -1.5
COc1ccc2c3c([nH]c2c1)[C@H](CO)N(C(=O)C1CCC1)CC31CCN(C(=O)c2ccccn2)CC1 | 13.2 | 8.6
OC[C@H]1[C@@H]2c3ccccc3NC[C@@H]2N1Cc1ccccc1Cl | -10.5 | -10.8
CO[C@H]1CN(C)C(=O)c2ccc(NC(=O)Cc3ccccc3)cc2OC[C@H](C)N(CC2CC2)C[C@@H]1C | -5.2 | -4.2
C[C@H](CO)N1C[C@H](C)[C@@H](CN(C)C)Oc2ccc(NS(=O)(=O)c3ccc(F)cc3)cc2CC1=O | 8.0 | 9.0
CO[C@@H]1CN(C)C(=O)c2cc(NC(=O)NC3CCCCC3)ccc2OC[C@H](C)NC[C@H]1C | -1.0 | 0.2
C[C@@H]1CN([C@H](C)CO)C(=O)c2cc(NS(=O)(=O)c3ccc(F)cc3)ccc2O[C@@H](C)CCCCO[C@H]1CN(C)Cc1ccc(C(F)(F)F)cc1 | ? | /
CO[C@@H]1CN(C)C(=O)c2ccc(NC(=O)C3CCCCC3)cc2OC[C@@H](C)N(Cc2nccs2)C[C@@H]1C | -16.8 | -15.9
O=C(N[C@@H]1CC[C@H](CC(=O)N2CCc3ccccc3C2)O[C@H]1CO)C1CC1 | 8.9 | 5.3
O=C(Nc1ccc(F)cc1)N1CCCCN2[C@@H](CO)[C@H](c3ccc(C#Cc4ccccn4)cc3)[C@@H]2C1 | 4.5 | -8.3
CC(C)NC(=O)Nc1ccc2c(c1)CC(=O)N([C@H](C)CO)C[C@H](C)[C@@H](CN(C)C(=O)NC(C)C)O2 | 6.9 | 1.9
O=C(C[C@@H]1CC[C@@H](NC(=O)Nc2ccc(C(F)(F)F)cc2)[C@H](CO)O1)NCc1cc(F)cc(F)c1 | -29.2 | -16.0
C[C@@H]1CN([C@H](C)CO)S(=O)(=O)c2ccc(-c3cccnc3)cc2O[C@H]1CN(C)C(=O)CC1CC1 | 27.0 | 15.0
C[C@@H]1CN([C@H](C)CO)C(=O)Cc2cc(NC(=O)Nc3ccccc3)ccc2O[C@@H]1CN(C)C(=O)Nc1cccc2ccccc12 | 19.9 | 9.8
COc1ccc(CN(C)C[C@H]2Oc3ccc(NC(=O)Cc4ccccc4)cc3CC(=O)N([C@H](C)CO)C[C@@H]2C)cc1 | 0.2 | -3.6
COc1ccccc1C#Cc1ccc([C@H]2[C@H](CO)N3CCCCN(S(C)(=O)=O)C[C@@H]23)cc1 | -1.3 | -18.2
Cc1ccc(-c2cnc3c(c2)C(=O)N([C@H](C)CO)C[C@@H](C)[C@@H](CN(C)C(=O)c2cccnc2)O3)cc1 | 16.2 | 10.3
C[C@@H]1CN([C@@H](C)CO)C(=O)c2cccc(NC(=O)Nc3ccc(F)cc3)c2O[C@@H]1CN(C)CC1CC1 | 3.2 | 8.2
C[C@@H]1CN([C@@H](C)CO)C(=O)c2cc(-c3cccc(F)c3)cnc2O[C@H]1CN(C)C(=O)C1CCCCC1 | -9.0 | -7.4
C[C@H]1CN([C@@H](C)CO)C(=O)c2cc(NS(=O)(=O)c3cccs3)ccc2O[C@H]1CN(C)Cc1ccc(Oc2ccccc2)cc1 | -9.1 | -5.3
C[C@H]1CN([C@@H](C)CO)S(=O)(=O)c2ccc(/C=C/c3ccccc3)cc2O[C@@H]1CN(C)C | ? | /
C[C@@H]1CN([C@H](C)CO)C(=O)c2cccc(NC(=O)C3CC3)c2O[C@H]1CN(C)Cc1ccncc1 | 5.7 | 3.2
C[C@@H]1CN([C@H](C)CO)C(=O)c2cccc(NC(=O)CCCCCC(=O)Nc3ccccc3N)c2O[C@H]1CN(C)Cc1ccccc1 | ? | /
C[C@H]1CN([C@@H](C)CO)C(=O)c2c(c3ccccc3n2C)-c2ccccc2CO[C@H]1CN(C)C | -30.6 | -20.9
C[C@@H]1CN([C@H](C)CO)C(=O)c2cc(NC(=O)C3CC3)ccc2O[C@@H]1CN(C)CC1CCCCC1 | -5.6 | -3.0
C[C@@H]1CN([C@@H](C)CO)C(=O)c2cccc(NS(=O)(=O)c3ccccc3)c2O[C@H]1CN(C)C(=O)Nc1ccc(F)cc1 | -1.1 | -7.2
CC(C)C#Cc1ccc2c(c1)O[C@@H](CN(C)C(=O)c1ccccc1)[C@@H](C)CN([C@@H](C)CO)S2(=O)=O | ? | /
O=C1CCCn2cc(nn2)COC[C@H](Cc2ccccc2)N1 | 15.5 | 8.3
CN(C)CCCNC(=O)C[C@@H]1C=C[C@H](NS(=O)(=O)c2ccc(F)cc2)[C@H](CO)O1 | 6.9 | 15.6
CC(C)NC(=O)N(C)C[C@H]1Oc2cc(-c3ccccc3)ccc2S(=O)(=O)N([C@@H](C)CO)C[C@@H]1C | -4.9 | -2.6
COc1ccc(NC(=O)N(C)C[C@H]2OCCCC[C@H](C)Oc3ccc(NC(=O)Cc4ccccc4)cc3C(=O)N([C@H](C)CO)C[C@H]2C)cc1 | -16.2 | -12.4
C[C@H]1CN([C@@H](C)CO)C(=O)CCCn2cc(nn2)CO[C@@H]1CN(C)C(=O)Nc1ccccc1 | 8.0 | 10.6
C[C@H]1CN([C@@H](C)CO)S(=O)(=O)c2ccc(C3=CCCC3)cc2O[C@H]1CN(C)C(=O)CC1CC1 | -3.7 | 2.2
C[C@@H]1CN([C@H](C)CO)C(=O)c2cc(-c3cccc(F)c3)cnc2O[C@@H]1CN(C)C | 18.8 | 12.3
C[C@H](CO)N1C[C@H](C)[C@H](CN(C)CC2CCCCC2)Oc2ccc(NC(=O)C3CC3)cc2CC1=O | 3.7 | 5.1
C[C@@H]1CCCCO[C@@H](CN(C)S(C)(=O)=O)[C@H](C)CN([C@@H](C)CO)C(=O)c2cc(NS(=O)(=O)c3cccs3)ccc2O1 | 10.1 | 1.5
Cc1ccc(S(=O)(=O)Nc2ccc3c(c2)C(=O)N([C@H](C)CO)C[C@H](C)[C@@H](CN(C)C(=O)NC2CCCCC2)O3)cc1 | 10.1 | -0.1
Cc1noc(C)c1NC(=O)Nc1ccc2c(c1)C(=O)N([C@@H](C)CO)C[C@H](C)[C@@H](CN(C)S(=O)(=O)c1cccs1)OCCCC[C@@H](C)O2 | 18.9 | 9.8
COc1ccccc1C#Cc1cnc2c(c1)C(=O)N([C@H](C)CO)C[C@H](C)[C@H](CN(C)C(=O)c1ccc3c(c1)OCO3)O2 | ? | /
CCCN1C[C@H](C)[C@H](OC)CN(C)C(=O)c2cc(NC(=O)c3ccccc3F)ccc2OC[C@@H]1C | 10.4 | 2.6
COc1ccc(NC(=O)Nc2ccc3c(c2)C(=O)N([C@H](C)CO)C[C@@H](C)[C@@H](CN(C)C(=O)C2CCCCC2)OCCCC[C@H](C)O3)cc1 | 9.6 | 2.8
O=C(O)C[C@H]1C[C@@H]2c3cc(NC(=O)Cc4ccncc4)ccc3O[C@@H]2[C@@H](CO)O1 | 7.4 | 0.0
